Sfp inh = blocks B. subtilis Sfp PPTase activity; Q9F4F7; Biochemical Sfp PPTase activity, qHTS; Potency, µM, without a hit: max response, negative = inhibition, hits mostly inhibitors; hit rate 3.5% among 310,000; active means well fitted inhibition curve with a large enough effect; inconclusive means small, poorly fitted or top-dose-only effect, or another doubt; inactive means no such curve, though single readings can be large or run the other way;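 further: the enzyme is Sfp with the accession as filed and its product quenches rhodamine fluorescence; potency means the concentration at half of the fitted maximal effect; 0% = enzyme reaction without inhibitor and -100% = no enzyme wells; top concentration of the series not given in the record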
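Fluorescence-quenching assay with 15 nM Sfp, 5 uM rhodamine-CoA and 12.5 uM BHQ-2-labelled ybbR peptide in pH 7.6 Hepes/MgCl2 buffer. Enzyme was pre-incubated with compound for 15 min at room temperature. Rate was taken from the 30-min fluorescence change (525/598 nm).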
Menin MLL FP FL = menin-MLL binding inhibition, fluorescein peptide; AID 1766; FP activity change, % at 61.4 µM; 290,000 tested, under 10 active; Fluorescence polarization, fluorescein-MLL peptide displacement from menin; inconclusive = falling polarisation curve, or a change in total fluorescence; inactive = total fluorescence flat and polarisation flat or rising; no compound was filed as active; the % refers to the polarisation; negative = inhibition;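 further: % of control where 0% means no effect; inhibitors lower the polarisation; unlabelled MLL peptide was the positive control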
An asterisk follows results filed as active; ? = inconclusive; & = joins results of further samples; [ ] = remark or other dose.

| No. | Molecule | Sfp inh | Menin MLL FP FL |
| --- | --- | --- | --- |
| 1 | CC1=CC(=O)C2=C(C)C[C@@H]3OC(=O)[C@@H](C)[C@H]3C=C12 | 1.4% | -3.4 |
| 2 | CC(=O)N[C@@H](Cc1c[nH]c2ccccc12)C(=O)O | 10.3% | -0.8 |
| 3 | CC(C)C[C@@H](CC(=O)N[C@@H](CCC(=O)O)CC(=O)O)NC(=O)[C@@H]1CNCC[C@H]1NC(=O)C[C@@H](NC(=O)C[C@H](Cc1c[nH]c2ccccc12)NC(=O)[C@@H]1CNCC[C@H]1N)C(C)C | -23.3% | 0.3 |
| 4 | CC(=O)OC1CC[C@@]2(C)C3CC(=O)[C@]4(C)C(C(C)=O)=CCC4C3CC[C@H]2C1 (stereo partly specified) | -9.4% | 0.6 |
| 5 | CC[C@H](C)[C@H](NC(=O)[C@@H](NC(=O)[C@@H](NC(=O)[C@H](CCC(=O)O)NC(=O)[C@H](CCC(=O)O)NC(=O)[C@H](CCC(=O)O)NC(=O)[C@H](C)NC(=O)[C@@H](N)CC(C)C)C(C)C)C(C)C)C(=O)N[C@@H](CCCNC(=N)N)C(=O)N[C@@H](CO)C(=O)N[C@@H](C)C(=O)N[C@@H](CC(N)=O)C(=O)N[C@@H](Cc1ccccc1)C(=O)N[C@H](C(=O)N[C@@H](CC(=O)O)C(=O)N[C@@H](CC(N)=O)C(=O)O)[C@@H](C)O | 4.7% | -0.8 |
| 6 | COc1ccc(C2/C=C\CN(Cc3ccco3)C(C)C(=O)N2Cc2ccc(F)cc2)cc1 (stereo unspecified) | ? | 5.2 |
| 7 | COCc1c(C(C)C)nc(C(C)C)c(/C=C/[C@@H](O)C[C@@H](O)CC(=O)O)c1-c1ccc(F)cc1 | 7.8% | 2.2 |
| 8 | C1CCC(N=C(NC23CC4CC(CC(C4)C2)C3)N2CCOCC2)CC1 | 20.3% | -1.9&-0.2 |
| 9 | O=C1CC2(CCCC2)CC(=O)N1CCNC[C@H]1COc2ccccc2O1 | -3.6% | -15.2 |
| 10 | NC1=NC(S)C2N=CN=C2N1 (stereo unspecified) | 56.2µM* | 0.7 |
| 11 | COc1ncc2nc(-c3cc(F)cc(F)c3)c(=O)n(C3CC3)c2n1 | 5.3% | 0.5 |
| 12 | C[C@@]12C=Cc3occc3[C@H]1CC[C@]13CC(=O)[C@@H](CC[C@H]12)C3 | -18.0% | -4.8 |
| 13 | CN1CCN(c2ncc3nc(-c4ccc(Cl)cc4)c(=O)n(-c4ccccc4)c3n2)CC1 | -4.6% | -4.7 |
| 14 | COC(=O)N1[C@H](C)C=C[C@]1(Cc1ccccc1)C(=O)NCc1ccc(C)o1 | 44.7µM* | 7.1 |
| 15 | COc1ccc(C(=O)N2CCC[C@@]3(CCN(C)C3)C2)cc1 | 24.3% | 1.0 |
| 16 | Cn1c(=O)c(-c2ccc(F)cc2)nc2cnc(N3CCOCC3)nc21 | 13.5% | 3.4 |
| 17 | Cc1nc(N2CCOCC2)c2nc(-c3ccccc3)n(CC3CCN(C)CC3)c2n1 | 21.1% | -1.7 |
| 18 | COC(=O)C/C=C\[C@@H](C)[C@@H](/C=N\OC[C@@H](O)COCc1ccco1)NS(=O)(=O)c1ccc(C)cc1 | -5.1% | -0.6[11.7 µM] |
| 19 | O=C(c1cccc(F)c1)N1CCC[C@@]2(CCN(c3ccncc3)C2)C1 | -7.1% | -2.5 |
| 20 | CN(C)c1ccc(-c2cncnc2NCc2cccs2)cc1 | 2.0% | -1.1 |
| 21 | CN(C)c1ncc2nc(-c3ccc(F)cc3)c(=O)n(Cc3ccc(F)cc3)c2n1 | 5.2% | -10.9 |
| 22 | COC(=O)C/C=C\[C@@H](C)[C@@H](/C=N\O[C@@H](C)c1cc(-c2c(C)cc(C)cc2C)no1)NS(=O)(=O)c1ccc(C)cc1 | 8.1% | -1.8[11.7 µM] |
| 23 | CC(C)CN1CCCC2(CCN(C(=O)c3ccco3)CC2)C1 | 18.9% | -2.1 |
| 24 | CCN(CC)CCn1c(-c2ccccc2)nc2c(NC3CCCCC3)nc(C)nc21 | 16.4% | -1.5 |
| 25 | O=c1c(CCc2ccccc2)nc2cnc(Oc3ccccc3)nc2n1C[C@H]1CCCO1 | -13.6% | 1.0 |
| 26 | CCCCCCCCCCCCCC[C@@H](O)[C@@H](O)[C@@H](N)CO | ? | -4.1 |
| 27 | O=P(O)(O)OC[C@H]1O[C@](O)(COP(=O)(O)O)[C@@H](O)[C@@H]1O | 29.0% | -5.2 |
| 28 | COc1ccc2c(c1)O[C@@H](c1ccc3c(c1)OCO3)[C@H](OC(=O)NS(=O)(=O)c1ccc(F)cc1)C2=O | 1.2% | -5.6 |
| 29 | COc1cccc([C@H]2Oc3ccc(OC)cc3/C(=N\OC[C@@H](O)[C@@H]3O[C@@H]4OC(C)(C)O[C@@H]4[C@H]3O)[C@@H]2O)c1 | 7.1% | -2.6[11.7 µM] |
| 30 | O=C(c1cccc(F)c1)N1CCC2(CCN(Cc3nccs3)CC2)CC1 | 11.2% | -0.2 |
| 31 | CN1CCC[C@@H]1Cc1c[nH]c2ccc(CCS(=O)(=O)c3ccccc3)cc12 | -6.0% | -0.3 |
| 32 | Cc1nn(C)c2nc(NNC(=O)Nc3cc(Cl)nc(Cl)c3)cc(C(C)C)c12 | -29.9% | 0.8 |
| 33 | C[C@]12O[C@H]1[C@@H](O)C(Br)=C(CO)[C@H]2O | -2.3% | -6.9 |
| 34 | CCc1ccc2c(-c3cccc(Cl)c3)nc(=O)n(CC)c2n1 | -25.5% | 21.7 |
| 35 | CC(C)(C)N1C(=O)[C@H]2[C@H]3[C@H](O)[C@H](O)C/C(=N/NC(=O)OCc4ccccc4)[C@H]3CC[C@@H]2C1=O | 5.8% | 0.4[11.7 µM] |
| 36 | O=c1c(O)c(-c2ccccc2)oc2ccc3occc3c12 | -14.6% | 0.2 |
| 37 | Cn1cccc1C(=O)N1CCC2(CCN(C(=O)Nc3cccc(F)c3)CC2)CC1 | 26.4% | -4.2 |
| 38 | CNCCCCc1cnc(C)c2[nH]c3ccccc3c12 | -10.2% | -4.9 |
| 39 | CC(C)[C@@H](CC(=O)N[C@@H]1CCNC[C@H]1C(=O)N[C@H](CC(=O)N[C@@H](CCC(=O)O)CC(=O)O)Cc1ccccc1)NC(=O)C[C@H](Cc1c[nH]c2ccccc12)NC(=O)[C@@H]1CNCC[C@H]1N | -22.3% | 6.7 |
| 40 | CO[C@H]1C[C@@H]2CC[C@@H](C)[C@@](O)(O2)C(=O)C(=O)N2CCCC[C@H]2C(=O)O[C@H]([C@H](C)C[C@@H]2CC[C@@H](OC(=O)C(C)(CO)CO)[C@H](OC)C2)CC(=O)[C@H](C)/C=C(\C)[C@@H](O)[C@@H](OC)C(=O)[C@H](C)C[C@H](C)/C=C/C=C/C=C/1C | 0.3% | -3.0 |

Structures above shown as hits in Sfp inh.
| No. | Molecule | Sfp inh | Menin MLL FP FL |
| --- | --- | --- | --- |
| 10 | NC1=NC(S)C2N=CN=C2N1 (stereo unspecified) | 56.2µM* | 0.7 |
| 14 | COC(=O)N1[C@H](C)C=C[C@]1(Cc1ccccc1)C(=O)NCc1ccc(C)o1 | 44.7µM* | 7.1 |

Later entries:
| No. | Molecule | Sfp inh | Menin MLL FP FL |
| --- | --- | --- | --- |
| 41 | CC(C)CCCC(C)C1CCC2C3CC=C4CC(=O)CC[C@@]4(C)C3CC[C@@]12C (stereo partly specified) | 5.3% | -1.2 |
| 42 | CCCNC(=O)OC[C@H]1O[C@@H](CCO/N=C\[C@@H](NS(=O)(=O)c2ccc(C)cc2)[C@H](C)/C=C\CC(=O)OC)C=C[C@@H]1Oc1ccc(OC)cc1 | ? | -3.2[11.7 µM] |
| 43 | CC(C)C[C@H](NC(=O)[C@@H](O)[C@H](N)Cc1ccccc1)C(=O)O | 9.7%&21.5%&-6.2% | -3.6&0.9 |
| 44 | CC(=O)N1C2(C=CC1(C)C(=O)NCc1ccc(C)o1)CCCCC2 (stereo unspecified) | ? | ? |
| 45 | COC(=O)[C@H](COC(C)(C)C)NC(=O)O[C@H]1C(=O)c2cc(OC)ccc2O[C@@H]1c1ccc(OC)c(Br)c1 | 19.3% | -2.6 |
| 46 | CCCCCCOc1ccc(C(=N)N(CCCC)CCCC)c2ccccc12 | 17.8µM* | -3.0 |
| 47 | Cc1csc(-c2coc3cc(O[C@@H]4O[C@H](CO)[C@@H](O)[C@@H](O)[C@H]4O)ccc3c2=O)n1 | -0.7% | -0.2 |
| 48 | C[C@]12CC[C@@H]3c4ccc(O)cc4C[C@@H](CCCCCCCCCS(=O)CCCC(F)(F)C(F)(F)F)C3[C@@H]1CC[C@@H]2O (stereo partly specified) | -0.3% | 1.0 |
| 49 | CO[C@H]1COC(=O)C/C=C\[C@@H](C)[C@H](OC)COC(=O)[C@H]2CCCN2C(=O)C/C=C\[C@@H]1C | 4.2% | -3.0[11.7 µM] |
| 50 | C[C@H](O)C(=O)Nc1c(I)c(C(=O)NC(CO)CO)c(I)c(C(=O)NC(CO)CO)c1I | 19.6% | -4.8[24.8 µM] |
| 51 | CCOC(=O)CNC(=O)O[C@@H]1Cc2cc(OC)ccc2O[C@H]1c1cccc(OC)c1 | -9.6% | -0.3 |
| 52 | COC(=O)C1(C(=O)OC)CC2=CCC3C(=O)N(c4ccccc4)C(=O)C3C2Cc2ccccc2[C@@H]1C[N+](=O)[O-] (stereo partly specified) | 4.3% | 0.3 |
| 53 | CN(C)c1ccc(-c2cncnc2NCc2cccnc2)cc1 | -14.0% | -0.3 |
| 54 | O=S(=O)(c1ccccc1)N1CCC2(CCN(Cc3ccncc3)CC2)CC1 | -6.2% | -3.0 |

Structures listed so far that have a Cl atom (three):
| No. | Molecule | Sfp inh | Menin MLL FP FL |
| --- | --- | --- | --- |
| 13 | CN1CCN(c2ncc3nc(-c4ccc(Cl)cc4)c(=O)n(-c4ccccc4)c3n2)CC1 | -4.6% | -4.7 |
| 32 | Cc1nn(C)c2nc(NNC(=O)Nc3cc(Cl)nc(Cl)c3)cc(C(C)C)c12 | -29.9% | 0.8 |
| 34 | CCc1ccc2c(-c3cccc(Cl)c3)nc(=O)n(CC)c2n1 | -25.5% | 21.7 |

Structural class: the entries above containing a COOH group.
| No. | Molecule | Sfp inh | Menin MLL FP FL |
| --- | --- | --- | --- |
| 2 | CC(=O)N[C@@H](Cc1c[nH]c2ccccc12)C(=O)O | 10.3% | -0.8 |
| 3 | CC(C)C[C@@H](CC(=O)N[C@@H](CCC(=O)O)CC(=O)O)NC(=O)[C@@H]1CNCC[C@H]1NC(=O)C[C@@H](NC(=O)C[C@H](Cc1c[nH]c2ccccc12)NC(=O)[C@@H]1CNCC[C@H]1N)C(C)C | -23.3% | 0.3 |
| 5 | CC[C@H](C)[C@H](NC(=O)[C@@H](NC(=O)[C@@H](NC(=O)[C@H](CCC(=O)O)NC(=O)[C@H](CCC(=O)O)NC(=O)[C@H](CCC(=O)O)NC(=O)[C@H](C)NC(=O)[C@@H](N)CC(C)C)C(C)C)C(C)C)C(=O)N[C@@H](CCCNC(=N)N)C(=O)N[C@@H](CO)C(=O)N[C@@H](C)C(=O)N[C@@H](CC(N)=O)C(=O)N[C@@H](Cc1ccccc1)C(=O)N[C@H](C(=O)N[C@@H](CC(=O)O)C(=O)N[C@@H](CC(N)=O)C(=O)O)[C@@H](C)O | 4.7% | -0.8 |
| 7 | COCc1c(C(C)C)nc(C(C)C)c(/C=C/[C@@H](O)C[C@@H](O)CC(=O)O)c1-c1ccc(F)cc1 | 7.8% | 2.2 |
| 39 | CC(C)[C@@H](CC(=O)N[C@@H]1CCNC[C@H]1C(=O)N[C@H](CC(=O)N[C@@H](CCC(=O)O)CC(=O)O)Cc1ccccc1)NC(=O)C[C@H](Cc1c[nH]c2ccccc12)NC(=O)[C@@H]1CNCC[C@H]1N | -22.3% | 6.7 |
| 43 | CC(C)C[C@H](NC(=O)[C@@H](O)[C@H](N)Cc1ccccc1)C(=O)O | 9.7%&21.5%&-6.2% | -3.6&0.9 |

Not all compounds are listed, so the mix of outcomes need not match the whole.
